AF4-AF9 inh: MLL-AF4/AF9 protein interaction inhibition | P42568 | AlphaScreen, biotin-AF4 peptide binding to FLAG-AF9 | inhibition, % at 10 µM | actives 0.47% (n = 350,000);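 active = every replicate reaching a set inhibition limit, whatever the replicate mean, cut at about 25% in these data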;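 also: 0% = plate neutral control median and 100% = total signal loss; the record names both 10 and 1 µM as test concentration; the first replicate is given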
Target sequence (P42568 whole entry, looked up): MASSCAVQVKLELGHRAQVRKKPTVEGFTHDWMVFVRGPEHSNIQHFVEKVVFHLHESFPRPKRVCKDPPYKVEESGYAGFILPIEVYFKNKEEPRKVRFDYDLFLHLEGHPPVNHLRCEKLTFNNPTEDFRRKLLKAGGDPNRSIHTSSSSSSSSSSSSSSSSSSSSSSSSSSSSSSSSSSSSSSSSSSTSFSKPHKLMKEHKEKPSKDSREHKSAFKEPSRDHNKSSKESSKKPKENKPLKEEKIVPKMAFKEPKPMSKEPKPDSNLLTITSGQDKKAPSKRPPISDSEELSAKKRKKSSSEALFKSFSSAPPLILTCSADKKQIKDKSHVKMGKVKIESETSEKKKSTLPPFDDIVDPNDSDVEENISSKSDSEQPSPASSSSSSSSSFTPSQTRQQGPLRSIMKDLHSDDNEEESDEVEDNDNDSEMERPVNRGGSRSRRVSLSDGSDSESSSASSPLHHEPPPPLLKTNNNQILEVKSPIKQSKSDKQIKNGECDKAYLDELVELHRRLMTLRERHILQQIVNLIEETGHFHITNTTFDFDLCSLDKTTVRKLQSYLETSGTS
rRNA inh HTS: inhibitors of bacterial rRNA selective over humanized ribosomes; E. coli WT GFP vs humanized-ribosome RFP mutants, fluorescence, 24 h; hits give low values; DMSO median 0, no signal -100; GFP signal change (wild-type ribosome), % (test concentration not listed); actives 1.6% (n = 350,000); AID 720706;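 active = significant combined selectivity score with lowered wild-type GFP, culture density cut under 30%, mutant RFP and density less affected; inactive = any of these conditions unmet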; also: one replicate is shown; some compounds called inactive have numbers as strong as hits
rRNA inh HTS OD600: recorded beside rRNA inh HTS, whose call it bears; OD600 change, %; measured here: OD600 growth;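 optical density of the mix in the first replicate; 0 = DMSO median and -100 = no signal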
rRNA inh HTS RFP: second read-out of rRNA inh HTS, no call of its own (marks repeat the call); RFP signal change, %; measured here: RFP humanized mutant strains;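 first replicate; 0 = DMSO median and -100 = no signal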
Numbers without * were called inactive; & = joins results of further samples. These rows are one share of the data. The share of hits here may be higher or lower than overall.

rRNA inh HTS RFP	rRNA inh HTS	AF4-AF9 inh	rRNA inh HTS OD600	SMILES
2.4	0.8	-12.6	9.1	CCC(=O)NC[C@@H]1[C@@H](c2ccc(C3=CCCCC3)cc2)[C@@H](CO)N1C(=O)C1CC1
14.9	-13.3	1.0	-33.4	O=C(Nc1ccccc1)N1CC(=O)N2[C@@H](CO)[C@@H](c3ccc(C#CC4CCCC4)cc3)[C@@H]2C1
1.6	2.2	-1.8	14.2	COCC(=O)N1CC(=O)N2[C@H](CO)[C@H](c3ccc(C#CC(C)C)cc3)[C@@H]2C1
-4.7&-12.1	3.7&-55.1	-2.0&3.4	7.4&-78.8	COc1cccc(S(=O)(=O)N2C[C@@H]3N[C@H](C2)C3c2ccc(/C=C/c3ccccc3)cc2)c1 (some centres not stated)
-3.4&6.5	-3.2&8.8	-1.8&1.1	13.6&12.5	O=C(NC1CCCCC1)N1[C@@H]2CNC[C@H]1C2c1ccc(-c2cccnc2)cc1 (some centres not stated)
-1.9	9.7	-3.4	12.4	COc1ccc2c3c([nH]c2c1)[C@@H](CO)N(C(=O)C1CCOCC1)CC31CN(C(=O)NC(C)C)C1
-2.7	-1.1	0.7	-2.1	CN(C)C(=O)[C@@H]1[C@@H](CO)[C@@H]2Cn3c(ccc(-c4cncnc4)c3=O)[C@H]1N2C(=O)NC1CCCC1
27.0	-1.0	-0.3	-4.2	Nc1[nH]c(C(=O)c2ccc(Br)cc2)c(-c2ccc(Br)cc2)c1C(=O)NCc1ccc(-c2ccccc2)cc1
1.6	3.8	-2.9	11.2	CCS(=O)(=O)NC[C@@H]1[C@@H](c2ccccc2)[C@@H](CO)N1CC1CCCC1
-2.7	2.8	-2.5	2.4	CO[C@@H]1CN(C)C(=O)c2ccc(NC(=O)C3CC3)cc2OC[C@H](C)N(C(C)=O)C[C@H]1C
-2.5	2.3	-2.9	6.4	CC(C)NC(=O)Nc1ccc2c(c1)C(=O)N(C)[C@H]1CC[C@H](CC(=O)NCc3ccc(F)cc3)O[C@@H]1CO2
-2.7	2.6	-10.3	8.2	C[C@@H]1CN([C@@H](C)CO)C(=O)Cc2cc(NC(=O)CCCN(C)C)ccc2O[C@@H]1CN(C)C
2.7	2.8	0.1	-5.0	O=C(Cc1ccccn1)N1CC(=O)N2[C@H](CO)[C@@H](c3ccc(C#CC4CC4)cc3)[C@H]2C1
-2.7	-2.8	0.2	6.8	Cc1ccc(S(=O)(=O)Nc2ccc3c(c2)C(=O)N([C@H](C)CO)C[C@H](C)[C@H](CN(C)C(=O)Nc2ccccc2)O3)cc1
-0.6&0.3	-0.4&-1.0	4.9&3.4	0.3&-2.4	C/C=C/c1ccc(C2[C@H]3CNC[C@@H]2N3Cc2ccccc2OC)cc1 (some centres not stated)

Continuation:
rRNA inh HTS RFP	rRNA inh HTS	AF4-AF9 inh	rRNA inh HTS OD600	SMILES
-7.9	-2.0	-3.1	-18.8	CCOC(=O)C1=CCN(S(=O)(=O)c2ccccc2C)C1c1cccc(Br)c1 (configuration not stated)
0.7	-6.1	1.8	-8.6	C/C=C/c1ccc([C@H]2[C@@H](CO)N3C(=O)CN(S(=O)(=O)c4ccccc4)C[C@@H]23)cc1
-2.3	2.6	-6.8	4.2	C[C@@H]1CCCCO[C@H](CN(C)Cc2ccccc2)[C@H](C)CN([C@@H](C)CO)C(=O)c2cc(NS(=O)(=O)c3cn(C)cn3)ccc2O1
0.1	1.2	2.5	-1.7	CCC(=O)N1CC(=O)N2[C@H](CO)[C@@H](c3ccc(C#Cc4cccc(OC)c4)cc3)[C@H]2C1
-4.7	3.3	-5.2	13.4	COCC#Cc1ccc([C@H]2[C@@H](CO)N3C(=O)CN(C(=O)C4CCC4)C[C@H]23)cc1
1.3	-0.9	-3.7	-0.5	Cc1noc(C)c1S(=O)(=O)Nc1ccc2c(c1)C(=O)N([C@@H](C)CO)C[C@@H](C)[C@@H](CN(C)C)OCCCC[C@@H](C)O2
8.3	3.3	2.1	1.2	O=C1CN(S(=O)(=O)Cc2ccccc2)C[C@@H]2[C@H](c3ccc(C#Cc4ccccc4)cc3)[C@@H](CO)N12
-1.1	1.1	-0.2	-5.9	CO[C@H]1CC[C@H]2CCOc3ccc(C#N)cc3C(=O)N(C)C[C@@H](c3ccccc3)CC(=O)N(C)C[C@H]1O2
0.6	0.7	-6.4	5.8	Cc1noc(C)c1NC(=O)Nc1ccc2c(c1)C(=O)N([C@H](C)CO)C[C@H](C)[C@@H](CN(C)Cc1ccccc1)OCCCC[C@@H](C)O2
-2.0	-1.6	-1.7	4.2	CNC[C@H]1Oc2ccc(N(C)C)cc2C(=O)N([C@@H](C)CO)C[C@H]1C
22.5	-11.2	2.1	-54.1	O=C(Nc1ccccc1F)N1CC(=O)N2[C@H](CO)[C@@H](c3ccc(C#Cc4ccc(F)cc4)cc3)[C@H]2C1
0.7	-5.4	-0.7	-0.8	CCCNC(=O)C[C@H]1CC[C@H]2[C@@H](COc3ccc(NS(=O)(=O)c4ccccc4C)cc3C(=O)N2C)O1
3.4	14.4	-2.5	3.4	CC(C)CSCC1OC(n2cnc3c(N)nccc32)C(O)C1O (configuration not stated)
-1.6	-2.2	-4.3	-1.6	C[C@H](NC(=O)C[C@H]1C=C[C@@H](NC(=O)Nc2ccc3c(c2)OCO3)[C@@H](CO)O1)c1ccccc1
4.4	-3.9	-2.2	-13.1	O=C(Nc1cc(F)ccc1F)N[C@@H]1CC[C@@H](CCn2cc(C3CCCC3)nn2)O[C@H]1CO

Next structures follow:
rRNA inh HTS RFP	rRNA inh HTS	AF4-AF9 inh	rRNA inh HTS OD600	SMILES
12.7	-11.6	16.4	-27.6	OC[C@@H]1[C@H](c2ccc(C#Cc3ccccc3F)cc2)[C@@H]2CN(CC3CCOCC3)CCCCN12
0.6	6.7	-0.8	3.9	CN(C)CC(=O)N1[C@@H](C#N)[C@H](c2ccccc2-c2ccccc2F)[C@@H]1CO
1.6	1.0	-1.7	-6.5	COc1ccccc1C#Cc1ccc([C@H]2[C@H](C#N)N(C(=O)C3CCCCC3)[C@H]2CO)cc1
4.3	-42.3	3.6	-64.2	O=C(c1cccc(F)c1)N1CC[C@@H]2[C@H]1c1cc(-c3ccccc3)ccc1N[C@@H]2CO
-2.8	-1.8	12.5	2.8	Cc1ccccc1S(=O)(=O)N1CC(=O)N2[C@@H](CO)[C@@H](c3ccc(C#CCN(C)C)cc3)[C@@H]2C1
7.9	3.2	6.4	2.0	O=C(Cc1ccccn1)N1CC(=O)N2[C@H](CO)[C@@H](c3ccc(C#CC4CCCCC4)cc3)[C@H]2C1
20.3	-8.4	16.7	-38.0	CN1c2ccc(-c3ccccc3F)cc2[C@@H]2[C@@H](CCN2C(=O)NC2CCCCC2)[C@@H]1CO
-2.5	6.0	-9.9	12.9	CN1CCN(C(=O)C[C@@H]2CC[C@H]3[C@@H](COC[C@H](O)CN3CC3CCCC3)O2)CC1
-3.8	2.7	0.0	4.7	O=C(NCCN1CCCCC1)[C@H]1N[C@H]2c3ccc(-c4ccccc4)c(=O)n3C[C@H]2[C@@H]1CO
-0.6	0.9	1.0	6.7	C[C@@H]1CN([C@H](C)CO)C(=O)c2cccc(NC(=O)c3ccncc3)c2O[C@@H]1CN(C)CC1CCCCC1
-1.0	1.6	5.8	2.2	CN(C)C(=O)C[C@@H]1C[C@H]2c3cc(NC(=O)C4CCC4)ccc3O[C@H]2[C@H](CO)O1
-0.9	9.4	4.2	15.6	O=C(COC(=O)Cc1c[nH]c2ccccc12)Nc1ccc(Cl)cc1
-2.5	4.9	-0.8	4.6	CC=Cc1ccc2n(c1=O)C[C@H]1[C@H](CO)[C@@H](C(=O)NC3CCC3)[C@@H]2N1Cc1ccncc1 (mixture of isomers)
-0.1	1.4	3.8	10.1	CCS(=O)(=O)Nc1ccc2c(c1)C(=O)N(C)[C@H]1CC[C@@H](CC(=O)N[C@H]3CCN(Cc4ccccc4)C3)O[C@@H]1CO2
5.1	0.9	-3.1	-1.8	CCCC#Cc1ccc([C@@H]2[C@H]3CN(C(=O)c4ccccn4)CC(=O)N3[C@H]2CO)cc1

In the list so far, 5 have an aryl methoxy group.
rRNA inh HTS RFP	rRNA inh HTS	AF4-AF9 inh	rRNA inh HTS OD600	SMILES
-4.7&-12.1	3.7&-55.1	-2.0&3.4	7.4&-78.8	COc1cccc(S(=O)(=O)N2C[C@@H]3N[C@H](C2)C3c2ccc(/C=C/c3ccccc3)cc2)c1 (some centres not stated)
-1.9	9.7	-3.4	12.4	COc1ccc2c3c([nH]c2c1)[C@@H](CO)N(C(=O)C1CCOCC1)CC31CN(C(=O)NC(C)C)C1
-0.6&0.3	-0.4&-1.0	4.9&3.4	0.3&-2.4	C/C=C/c1ccc(C2[C@H]3CNC[C@@H]2N3Cc2ccccc2OC)cc1 (some centres not stated)
0.1	1.2	2.5	-1.7	CCC(=O)N1CC(=O)N2[C@H](CO)[C@@H](c3ccc(C#Cc4cccc(OC)c4)cc3)[C@H]2C1
1.6	1.0	-1.7	-6.5	COc1ccccc1C#Cc1ccc([C@H]2[C@H](C#N)N(C(=O)C3CCCCC3)[C@H]2CO)cc1

New compounds follow.
rRNA inh HTS RFP	rRNA inh HTS	AF4-AF9 inh	rRNA inh HTS OD600	SMILES
-6.4	4.2	-0.2	4.8	O=C(Cc1ccccn1)N1CC(=O)N2[C@H](CO)[C@H](c3ccc(C#CC4CC4)cc3)[C@H]2C1
-1.5	-1.1	0.2	-1.1	CC(C)NC(=O)Nc1ccc2c(c1)C(=O)N([C@@H](C)CO)C[C@@H](C)[C@H](CN(C)C(=O)C1CCCCC1)OCCCC[C@H](C)O2
0.9	4.2	0.0	20.8	C/C=C/c1ccc([C@H]2[C@H](CO)N3C(=O)CN(C(=O)Nc4ccc(OC)cc4)C[C@@H]23)cc1
0.3	6.1	-0.9	5.2	O=C(C1CCOCC1)N1C[C@H]2[C@@H](c3ccccc31)[C@@H](CO)N2C(=O)Cc1ccccn1
13.7	6.8	3.9	-11.9	Cc1cccc(-c2ccc([C@@H]3[C@@H](CO)N4C(=O)CN(C(=O)c5ccccc5)C[C@H]34)cc2)c1
28.6	-11.7	5.8	-51.8	O=C(Nc1ccccc1F)N1CC(=O)N2[C@H](CO)[C@@H](c3ccc(C#CC4CCCC4)cc3)[C@@H]2C1
1.1	1.8	-0.4	0.2	O=C(C1CCOCC1)N1CC(=O)N2[C@H](CO)[C@H](c3ccc(-c4ccccc4F)cc3)[C@H]2C1
-1.0	0.6	-5.7	4.9	C[C@@H]1CN([C@H](C)CO)C(=O)c2cc(N(C)C)ccc2O[C@@H]1CN(C)S(=O)(=O)c1cn(C)cn1
0.7	6.1	4.9	11.0	CCCN1CC2(C1)CN(C(=O)CN1CCOCC1)[C@H](CO)c1c2c2ccc(OC)cc2n1C
-0.4	2.2	0.2	3.3	CC=Cc1ccc2n(c1=O)C[C@@H]1[C@@H](CO)[C@H](C(=O)NCCc3cn(C)cn3)[C@H]2N1C(=O)C1CCC1 (mixture of isomers)
3.7	-2.9	2.6	-9.3	O=C(NC1CCCC1)N1CC(=O)N2[C@@H](CO)[C@H](c3ccc(-c4cccc(F)c4)cc3)[C@@H]2C1
-3.6	-2.2	-2.8	-11.2	C/C=C/c1ccc2c(c1)O[C@@H](CN(C)CC1CCOCC1)[C@H](C)CN([C@H](C)CO)S2(=O)=O
-1.7	-1.4	1.3	2.6	Cc1ccc(S(=O)(=O)Nc2ccc3c(c2)C(=O)N([C@H](C)CO)C[C@H](C)[C@@H](CN(C)C)OCCCC[C@H](C)O3)cc1
8.8	1.9	-0.8	5.2	CCC(=O)N1CC(=O)N2[C@H](C1)[C@H](c1ccc(C#Cc3cccc(OC)c3)cc1)[C@@H]2CO
0.4	0.6	-1.1	-2.3	CCCNC(=O)C[C@@H]1CC[C@@H]2[C@@H](COc3ccc(NC(=O)c4cccc(Cl)c4)cc3C(=O)N2C)O1

The list goes on.
rRNA inh HTS RFP	rRNA inh HTS	AF4-AF9 inh	rRNA inh HTS OD600	SMILES
-0.8	1.3	-1.7	4.9	CC(=O)N1[C@H](C(=O)NCc2ccccc2)[C@@H](CO)[C@@H]2Cn3c(cccc3=O)[C@@H]21
-1.0	3.7	5.2	-3.2	C[C@H]1CCCCO[C@H](CN(C)C(=O)c2ccccc2)[C@@H](C)CN([C@@H](C)CO)C(=O)c2cc(N(C)C)ccc2O1
0.6	-6.8	-1.6	-7.7	CN(CC(=O)Nc1ccc(F)cc1)CC(=O)N1CCc2ccccc21
1.7	0.5	0.9	-1.3	CCN1[C@H](C(=O)OC)[C@@H](CO)[C@@H]2Cn3c(ccc(-c4cccc(OC)c4)c3=O)[C@@H]21
-1.7	-4.8	1.1	-4.7	N#C[C@@H]1[C@H](c2ccccc2-c2cccc(F)c2)[C@H](CO)N1C(=O)C1CCCC1
7.3	4.9	-4.2	-4.9	CCS(=O)(=O)N(C)C[C@@H]1N[C@H](CO)[C@@H]1c1ccc(C#CC2CCCC2)cc1
-0.1	1.3	2.9	0.3	CCS(=O)(=O)Nc1ccc2c(c1)C(=O)N(C)C[C@H](OC)[C@H](C)CN(C(=O)C1CCC1)[C@H](C)CO2
0.8	-0.1	0.8	1.3	CCNC(=O)C[C@@H]1CC[C@H]2[C@H](COc3ccc(NC(=O)C4CCCCC4)cc3C(=O)N2C)O1
2.9	-5.6	0.4	-6.7	O=C(c1cccnc1)N1CC[C@@H]2[C@H](CO)Nc3ccc(-c4cccc(F)c4)cc3[C@@H]21
-0.2	2.0	1.2	5.0	C[C@H]1CN([C@@H](C)CO)C(=O)Cc2cc(N(C)C)ccc2O[C@H]1CN(C)C(=O)Nc1cccc2ccccc12
-0.6	4.6	-16.8	7.0	O=C(C[C@H]1C=C[C@@H](NC(=O)CN2CCOCC2)[C@H](CO)O1)NCCc1ccncc1
